KCNQ2 inh: KCNQ2 potassium channel inhibitors, primary screen, cell-based, CHO-K1, FluxOR thallium flux, B-score (AID 2156); hit rate 1.1% among 310,000; B-score at 10 µM; 20 min; hits give low values; only compounds with negative scores are shown here; some inactives read as strong as hits; O88943;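 active = fluorescence ratio B-score at most minus 3 library SDs, with starting brightness B-score within 2 library SDs, cut at about -5.5 in these data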
Target sequence (O88943 whole entry, looked up): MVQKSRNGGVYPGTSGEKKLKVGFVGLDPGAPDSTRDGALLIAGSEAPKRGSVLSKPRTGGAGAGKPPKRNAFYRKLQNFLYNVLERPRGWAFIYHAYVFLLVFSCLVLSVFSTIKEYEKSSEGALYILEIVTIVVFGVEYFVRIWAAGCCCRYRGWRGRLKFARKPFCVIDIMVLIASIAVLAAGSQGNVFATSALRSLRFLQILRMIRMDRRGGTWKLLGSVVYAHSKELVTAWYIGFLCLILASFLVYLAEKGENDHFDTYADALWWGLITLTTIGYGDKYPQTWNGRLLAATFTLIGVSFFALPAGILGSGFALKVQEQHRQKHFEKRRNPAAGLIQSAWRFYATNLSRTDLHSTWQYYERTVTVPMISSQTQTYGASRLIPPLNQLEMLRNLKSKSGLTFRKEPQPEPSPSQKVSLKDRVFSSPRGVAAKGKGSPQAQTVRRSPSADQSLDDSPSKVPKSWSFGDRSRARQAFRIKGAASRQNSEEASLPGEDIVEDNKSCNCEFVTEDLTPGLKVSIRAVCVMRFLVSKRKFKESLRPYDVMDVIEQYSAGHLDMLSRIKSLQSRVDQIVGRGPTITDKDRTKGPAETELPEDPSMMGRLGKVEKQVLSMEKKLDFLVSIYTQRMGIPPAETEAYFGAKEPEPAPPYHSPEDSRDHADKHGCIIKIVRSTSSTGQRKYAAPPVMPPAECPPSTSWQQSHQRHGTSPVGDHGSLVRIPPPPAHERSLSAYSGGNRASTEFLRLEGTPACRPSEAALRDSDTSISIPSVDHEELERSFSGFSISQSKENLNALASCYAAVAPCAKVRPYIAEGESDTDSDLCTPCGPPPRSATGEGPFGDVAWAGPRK
KCNQ2 inh baseline: further read-out of KCNQ2 inh, marked with its call; B-score; measured here: initial fluorescence intensity artifact check;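 brightness before thallium and not channel activity; 0 = typical well and far values either way flag optical interference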
Numbers without * were called inactive; i = inactive.

KCNQ2 inh | KCNQ2 inh baseline | Molecule
i | 1.6 | COc1ccc(C)cc1N(C(=O)c1ccc(F)cc1)c1nc2ccccc2s1
i | -0.01 | C=CCc1cc(Cl)ccc1OCCN1CC(C)OC(C)C1 (stereo not given)
i | 0.08 | CC(=O)Nc1ccc(NS(=O)(=O)c2ccc(C)cc2)c([N+](=O)[O-])c1
i | 1.4 | COc1c(Cl)cc(Cl)cc1/C=C/C(=O)c1ccc(NC(=O)c2cccs2)cc1
i | 0.61 | O=S(=O)(c1ccc(F)cc1)N1CCN=C1SCc1cccnc1
i | -0.04 | Cc1ccc2nc(Cl)c(C3CC(c4cccs4)=NN3S(C)(=O)=O)cc2c1 (stereo not given)
i | -0.56 | CC(=O)c1ccc(-n2nncc2-c2ccc([N+](=O)[O-])cc2)cc1
i | 0.18 | CC1CN(C(=S)SCC(=O)c2ccc(Cl)cc2)CC(C)O1 (stereo not given)
i | -0.57 | C[C@H](NC(=O)c1ccco1)C(=O)Nc1ccc(C#N)cc1
i | -0.45 | COCc1cc(CN2CCN(CCc3ccccc3)C(CCO)C2)ccc1OC (stereo not given)

By substructure, the compounds so far containing fluorine
KCNQ2 inh | KCNQ2 inh baseline | Molecule
i | 1.6 | COc1ccc(C)cc1N(C(=O)c1ccc(F)cc1)c1nc2ccccc2s1
i | 0.61 | O=S(=O)(c1ccc(F)cc1)N1CCN=C1SCc1cccnc1

(listing goes on)
KCNQ2 inh | KCNQ2 inh baseline | Molecule
i | 0.75 | O=[N+]([O-])c1ccc2nc(-[n+]3c(-c4ccccc4)cc(-c4ccccc4)cc3-c3ccccc3)[nH]c2c1
i | -0.07 | Cc1cccc(N(C(=O)c2ccco2)C(C(=O)NC2CCCC2)c2ccco2)c1C (stereo not given)
i | -0.75 | Brc1ccc(/C=N/Nc2ncnc3c2cnn3Cc2ccccc2)cc1
i | 0.19 | CN(C)CCSc1nnc(-c2ccccc2)o1
i | 0.21 | COc1ccc(OC)c(-n2c(SCC(N)=O)nnc2-c2c[nH]c3ccccc23)c1
i | 0.01 | O=C(O)C1CCCCC1C(=O)NCCCN1CCOCC1 (stereo not given)
i | -0.62 | COC(=O)CNc1nc(-c2ccccc2F)nc2ccccc12
i | -1.6 | CCNc1ccc(Br)cc(C(=O)/C=C/c2c(Cl)cccc2Cl)c1=O
i | 1.3 | CCCCCCCCc1nc(=S)[nH][nH]1
i | -0.59 | CCOCCCNC(=O)C(c1ccc(OC)cc1)N(Cc1cccs1)C(=O)c1ccccn1 (stereo not given)

Entries listed so far that have bromine, in the order listed:
KCNQ2 inh | KCNQ2 inh baseline | Molecule
i | -0.75 | Brc1ccc(/C=N/Nc2ncnc3c2cnn3Cc2ccccc2)cc1
i | -1.6 | CCNc1ccc(Br)cc(C(=O)/C=C/c2c(Cl)cccc2Cl)c1=O

Next part
KCNQ2 inh | KCNQ2 inh baseline | Molecule
i | -2.3 | Nn1c(Nc2ccccc2)nc2sc3c(c2c1=O)CCC3
i | -1.6 | Cc1cc(NC(=O)CSCC(=O)Nc2cccc(S(=O)(=O)N3CCCCCC3)c2)no1
-5.9* | -0.03* | CN(C)c1ccc(-c2c(-c3ccc4c(c3)OCO4)noc2-c2ccsc2)cn1
i | -1.4 | CSc1ccccc1NC(=O)c1cnccn1
i | -1.3 | Cc1ccc(C(=O)NCCSc2c(C)[nH]c3ccccc23)cc1[N+](=O)[O-]
i | 0.21 | COC(=O)c1sc2nc(SCC(=O)N(C)c3ccccc3)n(N)c(=O)c2c1C
i | 0.01 | O=S(=O)(CCSc1ccc(C(F)(F)F)cn1)c1ccccc1
i | -3.1 | COc1cccc(NC(=S)NC(=O)Cc2ccccc2)c1
i | -0.02 | COc1ccc(-c2nc(C#N)c(N3CCN(C(=O)c4ccco4)CC3)o2)cc1OC
i | 1.1 | O=C(CSc1ccc(Cl)cc1)NC(=O)NCc1ccco1
i | 0.07 | C/C(=C\c1ccccc1)C1NC(=O)c2c(sc3c2CCCC3)N1 (stereo not given)
i | -0.2 | Cc1cc(C)n(-c2ccc(NC(=O)C3CCCCN3Cc3cccc4c3OCO4)cc2)n1 (stereo not given)
i | -0.06 | O=C(NCCN1CCOCC1)c1ccc(N2CCCC2)c([N+](=O)[O-])c1
i | -3 | COc1ccc(COCC(O)CN(Cc2ccco2)Cc2ccccc2O)cc1 (stereo not given)
i | 0.03 | CCOC(=O)c1sc(NC(=O)c2ccco2)nc1C
i | 1.8 | C=CCn1nnnc1SCC(=O)Nc1cccc(C(F)(F)F)c1
i | -0.02 | CCOC(=O)Cc1csc(NC(=O)CSc2nnc(-c3ccncc3)o2)n1
i | 0.79 | Cc1cc2c(OCC(O)CN3CCCCC3)cccc2[nH]1 (stereo not given)
i | -0.68 | COc1ccc(C(=O)N/C(=C/c2cccnc2)C(=O)N2CCOCC2)cc1OC
i | -0.74 | CCc1nnc(NC(=O)OCc2ccccc2)s1

5 of the compounds above, with values under each structure:
Below each SMILES – KCNQ2 inh | KCNQ2 inh baseline
- CCOC(=O)c1sc(NC(=O)c2ccco2)nc1C
  i | 0.03
- C=CCn1nnnc1SCC(=O)Nc1cccc(C(F)(F)F)c1
  i | 1.8
- CCOC(=O)Cc1csc(NC(=O)CSc2nnc(-c3ccncc3)o2)n1
  i | -0.02
- Cc1cc2c(OCC(O)CN3CCCCC3)cccc2[nH]1 (stereo not given)
  i | 0.79
- COc1ccc(C(=O)N/C(=C/c2cccnc2)C(=O)N2CCOCC2)cc1OC
  i | -0.68

(more compounds)
KCNQ2 inh | KCNQ2 inh baseline | Molecule
i | 2.4 | O=C(NC1CCCC1)C(c1cc2c(cc1[N+](=O)[O-])OCO2)N1CCCC1 (stereo not given)
i | -0.18 | CCCN(CC(=O)Nc1ccccc1C)C(=O)C1CCN(S(=O)(=O)c2ccccc2C(F)(F)F)CC1
i | 1.5 | Cc1ccc(/C=N/n2c(-c3cccc(Cl)c3)n[nH]c2=S)o1
i | -1.7 | COc1ccc(-c2ccccc2)cc1NCc1ccccc1C
i | -0.01 | COc1ccc(C)cc1NC(=O)CN(Cc1nnc(-c2ccc(Cl)cc2)o1)C1CCCC1
i | 0.45 | Cc1cccc(-n2nnnc2SCC(=O)c2cc(C)n(Cc3ccco3)c2C)c1
i | 1.2 | CCOC(=O)c1c(-c2ccccc2)csc1NC(=O)c1nn(CC)cc1Br
i | 1.4 | CCN(CC)S(=O)(=O)c1ccc(N2CCCC2)c(NC(=O)C2CSC3(C)CCC(=O)N23)c1 (stereo not given)
i | 0.12 | CCO/N=C(\C)c1c(O)c(CC)c(-c2ccccc2)n(-c2ccccc2)c1=O
i | -0.25 | CCC(CC)C(=O)Nc1cccc(SC)c1
i | -0.81 | CCOC(=O)C1NN=C(C(=O)c2ccccc2)C1c1ccc(OC)cc1 (stereo not given)
i | 1 | COc1ccc(CCN2C(=S)N(C)C(=O)C2CC(=O)Nc2ccc(OC)cc2)cc1 (stereo not given)
i | -0.21 | CC(Sc1ccsc1[N+](=O)[O-])C(=O)NCc1ccco1 (stereo not given)
i | 1.1 | Cc1cc(C)cc(N2C(=O)CC(N3CCOCC3)C2=O)c1 (stereo not given)
i | 0.8 | Cc1ccccc1-n1ncc(C(C)NS(=O)(=O)c2ccccc2Cl)c1C (stereo not given)
i | -0.18 | Cc1cccc(C)c1OCc1nnc(SCC(=O)NCc2ccccc2)o1
i | -0.02 | COc1ccccc1N(C)S(=O)(=O)c1ccc(C(=O)OCC(=O)Nc2ccccc2F)cc1
i | 1.3 | COc1ccccc1C(=O)NCCC(=O)N(C)CC(=O)Nc1c(Cl)cccc1Cl
i | 0.97 | CCOC(=O)N1CCC(NC(=O)c2cccc3c2C(=O)N(Cc2cccnc2)C3)CC1
i | -0.45 | c1ccc(Cc2nnc3n2N=C(c2ccccc2)CS3)cc1
i | -0.24 | O=S(=O)(c1ccc2c(c1)OCCO2)N1CCN(c2nc(-c3cccnc3)nc3ccccc23)CC1
i | 3.1 | Cc1ccccc1OCc1nnc(SCC(=O)Nc2ccc(N3CCOCC3)c(Cl)c2)n1C
i | -3.5 | O=c1[nH]c(=O)n(Cc2ccccc2)c2c1C(C(F)(F)F)(C(F)(F)F)N=C(c1ccco1)N2
i | -1 | O=C(c1ccccc1)N1CCN(CCc2ccccc2)CC1
i | -0.11 | CNc1nc(-c2ccc3c(c2)CCN3C(=O)c2ccccc2F)c(C)s1
i | -0.01 | O=C(CNC(=O)c1ccccc1)N/N=C/c1ccc([N+](=O)[O-])s1
i | 0.09 | CC(=O)c1ccc(-c2ccc([C@H]3[C@@H]4C=CCC[C@@]4(C)C(=O)N3Cc3ccccc3)c(F)c2)cc1
i | 0.31 | COc1ccc(C(=O)NNC(=O)CCn2nnc(-c3ccc(Cl)cc3)n2)cc1OC
i | 1.9 | Clc1ccc(-c2csc(N/N=C/c3cccnc3)n2)c(Cl)c1
i | -0.04 | Cc1nn(C)cc1CNC(=O)Nc1cccc(Cl)c1
i | -0.04 | CC(=O)Nc1cccc(C(=O)OCC(=O)NC(C)c2ccc(F)cc2)c1 (stereo not given)
i | 0.11 | CSc1ncc(CN2CCN(C(C)C)C(CCO)C2)cn1 (stereo not given)
i | -1.1 | COc1ccccc1-c1cc(SC)c(C#N)c(=O)o1
i | -0.17 | Cc1ccc(-c2cc(C(=O)NN3CCOCC3)c3cc(Br)ccc3n2)o1
i | -0.94 | Cc1cc(C)c2c(CN3CCCCC3)cc(=O)oc2c1
i | -3.9 | O=C(Nc1ccc(Cl)c(Cl)c1)Nc1nnc(CC2=CCCCC2)s1
i | -1.6 | Cc1cc(C)c2nc(N(CCCN(C)C)C(=O)c3ccc4c(c3)CCCC4)sc2c1
i | -1.3 | O=c1o[nH]c(-c2ccccc2)c1C=Nc1ccc(Cl)cc1
i | -1.7 | CC(=O)N1CCc2c(sc(NC(=O)CCS(=O)(=O)c3ccccc3)c2C#N)C1
i | 1.8 | CCCCNS(=O)(=O)c1ccc2nc(SCC(=O)Nc3cc(C)cc(C)c3)[nH]c2c1
i | -0.53 | CCOc1ccc(-c2cc3nc(C4CCN(C(=O)OC(C)(C)C)CC4)c(C(=O)O)cn3n2)cc1
i | -0.15 | O=C1NC(c2ccc(-c3ccccc3[N+](=O)[O-])o2)C(C(=O)c2ccc(Cl)cc2)C(O)(C(F)(F)F)N1 (stereo not given)
i | 1.6 | CCCC1=Nc2cc(C(=O)NCCN3CCOCC3)ccc2Sc2ccc(C)cc21
i | 0.4 | CC(C)CNC(=O)COC(=O)c1n[nH]c2ccccc12
i | 0.95 | Cc1c(Cl)cnc(NC(=O)COC(=O)c2ccc([N+](=O)[O-])s2)c1Cl
i | -0.23 | Cc1cnc(CN(C)Cc2c(C(=O)N3CCc4ccccc4C3)nc3ccc(Cl)cn23)[nH]1
i | 2 | COc1cccc(OC)c1C(=O)Nc1ccccc1N1CCCCC1
i | 0.36 | COC(=O)c1ccccc1OCC(=O)N1CCN(c2ccc(Cl)cc2)CC1
i | 0.41 | CCOc1ccc(NC(=O)C(C)Oc2ccccc2C(=O)Nc2ccc(C)c(Cl)c2)cc1 (stereo not given)
i | -1.7 | Cc1cc(C(=O)CSc2nnc(-c3ccncc3)n2-c2ccccc2)c(C)n1C

Following part
KCNQ2 inh | KCNQ2 inh baseline | Molecule
i | 1.4 | CCOC(=O)c1[nH]c2ccccc2c1NC(=O)Nc1ccc(OC)cc1
i | -0.64 | CN(C(=O)c1ccc(-c2nn(C)c(=O)c3ccccc23)cc1)c1ccccc1
i | -0.53 | O=C(NC(Cc1c[nH]c2ccccc12)c1nnc2n1CCCCC2)c1ccc(Cl)cc1 (stereo not given)
i | -2.2 | CC(C)OC(=O)C1=C2SCC(=O)N2C(N)=C(C#N)C1
i | 1.6 | CCOC(=O)c1ccccc1N/C=C/C(=O)c1ccccc1
-6.8* | 0.52* | CCCN(CCC)C(=O)Cn1c(=O)c2ccccc2n2c(=S)sc(-c3ccccc3C)c12
i | 1 | O=C(NCCc1ccccc1F)C1CCCN1S(=O)(=O)c1ccc2ccccc2c1 (stereo not given)
i | -0.15 | CCc1ccccc1NC(=O)c1cc(S(=O)(=O)N(C)C)ccc1N1CCCC1
i | 0.03 | CCS(=O)(=O)N1CCN(c2ccc(C(=O)NC3C4CC5CC(C4)CC3C5)cc2[N+](=O)[O-])CC1 (stereo not given)
i | 0.66 | O=C(O)/C=C/C(=O)NC1CCCCC1
-8.4* | -7.8* | COc1ccc(-c2nc(=S)[nH][nH]2)cc1
i | -0.33 | O=c1cc(CN2CCN(c3ccc(O)cc3)CC2)nc2scc(-c3ccccc3)n12
i | 0.77 | CC1CCN(C2=NC(=O)/C(=C/c3cn(-c4ccccc4)nc3-c3cccc(S(=O)(=O)N(C)C)c3)S2)CC1
i | -0.54 | O=C(CCN1C(=O)c2ccccc2C1=O)Nc1sc2c(c1C(=O)NCC1CCCO1)CCC2 (stereo not given)
i | 1.5 | C/C(=N/NC(=O)c1ccn(C)n1)c1ccncc1
i | -0.54 | CCOC(=O)N1CCN(C(=O)CN(CC)S(=O)(=O)c2cc(C)ccc2OC)CC1
i | -0.67 | COc1ccccc1OCCSc1nc2ccccc2n1CCO
-6* | 1.6* | Cc1cccc(OCc2nnc(SCC(=O)N3c4ccccc4CC3C)n2C)c1C (stereo not given)
i | 1.6 | CCOc1ccc(OCC)c(NC(=O)CCn2c(=O)oc3ccccc32)c1
i | -0.34 | COc1ccc(NC(=O)CN(C)C(=O)c2csc3c2CCCC3)cc1
i | -0.5 | CCNC(=O)Nn1c(C)nnc1C
i | 1.8 | CCOc1ccc(C2C(C#N)=C(N)Oc3cc(C)[nH]c(=O)c32)cc1OC (stereo not given)
i | 0.12 | COC(=O)CC(NS(=O)(=O)c1cccs1)c1ccc2c(c1)OCO2 (stereo not given)
i | 0.95 | Oc1ccc(Oc2ccc(Oc3ccc(O)cc3)cc2)cc1
i | -0.05 | COc1ccc(CCNC(=O)/C=C/C(=O)O)cc1OC

2 entries from above, with values under each structure.
Screens in order: KCNQ2 inh	KCNQ2 inh baseline
O=C(c1ccccc1)N1CCN(CCc2ccccc2)CC1
    i	-1
CNc1nc(-c2ccc3c(c2)CCN3C(=O)c2ccccc2F)c(C)s1
    i	-0.11

Assay outcomes (PubChem BioAssay)

An excerpt; rates above refer to the full screens.
